KCNQ2 block – KCNQ2 potassium channel inhibitors, primary screen, cell-based, CHO-K1, FluxOR thallium flux, B-score (AID 2156); B-score at 10 µM; Potassium voltage-gated channel subfamily KQT member 2 (Rattus norvegicus), O88943; hit rate 1.1% among 310,000; 20 min; hits give low values; only compounds with negative scores are shown here; some inactives read as strong as hits;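 active = fluorescence ratio B-score at most minus 3 library SDs, with starting brightness B-score within 2 library SDs, cut at about -5.5 in these data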
Target sequence (O88943 whole entry, looked up): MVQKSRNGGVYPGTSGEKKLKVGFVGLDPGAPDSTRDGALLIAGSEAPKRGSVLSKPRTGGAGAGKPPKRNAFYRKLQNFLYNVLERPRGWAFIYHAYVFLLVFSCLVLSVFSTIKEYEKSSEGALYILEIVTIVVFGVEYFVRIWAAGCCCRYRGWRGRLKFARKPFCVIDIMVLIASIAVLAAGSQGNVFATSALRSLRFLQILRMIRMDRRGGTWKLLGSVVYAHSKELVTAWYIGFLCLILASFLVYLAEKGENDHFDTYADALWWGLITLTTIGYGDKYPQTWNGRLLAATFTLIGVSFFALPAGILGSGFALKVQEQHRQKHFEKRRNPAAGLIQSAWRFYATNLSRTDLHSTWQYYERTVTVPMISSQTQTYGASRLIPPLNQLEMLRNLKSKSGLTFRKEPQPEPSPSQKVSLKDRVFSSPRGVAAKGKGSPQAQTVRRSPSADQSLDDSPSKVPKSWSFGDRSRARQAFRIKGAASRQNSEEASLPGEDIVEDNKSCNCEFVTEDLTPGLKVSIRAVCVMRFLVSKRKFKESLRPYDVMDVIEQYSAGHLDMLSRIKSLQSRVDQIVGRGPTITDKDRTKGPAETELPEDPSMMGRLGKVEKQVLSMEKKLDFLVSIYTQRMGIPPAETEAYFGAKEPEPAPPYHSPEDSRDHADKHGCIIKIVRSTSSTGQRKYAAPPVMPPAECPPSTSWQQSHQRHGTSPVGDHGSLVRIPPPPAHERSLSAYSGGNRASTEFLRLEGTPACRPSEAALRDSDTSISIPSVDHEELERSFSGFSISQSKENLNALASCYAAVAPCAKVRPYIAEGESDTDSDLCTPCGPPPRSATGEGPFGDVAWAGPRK
KCNQ2 block baseline – also measured in KCNQ2 block; calls as there; B-score; measured here: initial fluorescence intensity artifact check;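 brightness before thallium and not channel activity; 0 = typical well and far values either way flag optical interference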
An asterisk follows results filed as active. An excerpt. The share of hits here may be higher or lower than overall.

Screening COc1ccc(S(=O)(=O)Nc2cccc(-c3ccc4nncn4n3)c2)c(OC)c1 returned KCNQ2 block inactive and KCNQ2 block baseline -0.02.
COc1ccc(S(=O)(=O)N2CCOC2CNC(=O)C(=O)NCC(C)C)cc1 (configuration not stated) was read as KCNQ2 block inactive and KCNQ2 block baseline 0.91.
CN(C)c1cccc(C(=O)NCc2ccccc2)c1 was read as KCNQ2 block inactive and KCNQ2 block baseline 0.02.
For Cc1nn(-c2ccccc2)c(N)c1Sc1ccccc1[N+](=O)[O-] the results were KCNQ2 block inactive and KCNQ2 block baseline -0.39.
Screening CCOc1ccc(-c2c[n+]3c(n2-c2ccccc2)CCCCC3)cc1 returned KCNQ2 block inactive and KCNQ2 block baseline 2.
`O=[N+]([O-])c1ccc(Sc2n[nH]c(-c3ccco3)n2)nc1` gave KCNQ2 block inactive and KCNQ2 block baseline 1.3.
Screening Cc1ccn2c(CN3CCOCC3)c(-c3ccccc3)nc2c1 returned KCNQ2 block inactive and KCNQ2 block baseline 2.
Screening O=C1c2ccccc2C(Nc2ccc(F)c(Cl)c2)N1Cc1ccco1 (configuration not stated) returned KCNQ2 block inactive and KCNQ2 block baseline -1.4.
`O=C(Nc1ccc(OCC(=O)N2CCC(Cc3ccccc3)CC2)cc1)c1ccco1` gave KCNQ2 block inactive and KCNQ2 block baseline 0.55.
CCN(CC(=O)NCc1cccs1)c1nnnn1-c1ccccc1 was read as KCNQ2 block inactive and KCNQ2 block baseline 0.46.
COc1ccc(S(=O)(=O)NCC2CCCN(C(=O)c3cccnc3C)C2)cc1 (configuration not stated) was read as KCNQ2 block inactive and KCNQ2 block baseline 0.77.
For COc1ccc(N=C2SC(CC(=O)Nc3ccccc3OC)C(=O)N2Cc2ccco2)cc1 (configuration not stated) the results were KCNQ2 block inactive and KCNQ2 block baseline -0.65.
`CCc1ccc(OCC(O)CN2CCN(c3ccccn3)CC2)cc1` (configuration not stated) gave KCNQ2 block inactive and KCNQ2 block baseline -0.79.
`Cc1cc(C)n2ncc(C(=O)Nc3ccc4c(c3)OCO4)c2n1` gave KCNQ2 block inactive and KCNQ2 block baseline 3.6.
Screening CC(Oc1ccc(Cl)cc1)c1ccnc(N)n1 (configuration not stated) returned KCNQ2 block inactive and KCNQ2 block baseline -1.2.
For CN(C(=O)COC(=O)c1ccc(Cl)c(N)c1)c1ccccc1 the results were KCNQ2 block inactive and KCNQ2 block baseline -0.41.
CCOc1cccc(CN2CCCC(CNC(=O)c3cccc(OC)c3OC)C2)c1 (configuration not stated) was read as KCNQ2 block inactive and KCNQ2 block baseline 0.86.
`Cn1c(C(=O)NCCCN2CCOCC2)cc2c(=O)n(C)c3ccccc3c21` gave KCNQ2 block inactive and KCNQ2 block baseline -0.4.
`O=C(N/N=C/c1ccccc1)c1ccc(CN2C(=O)c3cccc4cccc2c34)cc1` gave KCNQ2 block inactive and KCNQ2 block baseline 2.5.
For COc1ccc(N(CC(=O)Nc2cccc(C)c2)S(=O)(=O)c2c(C)n[nH]c2C)cc1 the results were KCNQ2 block inactive and KCNQ2 block baseline 0.03.
Screening O=C1C2ON(c3ccccc3)C(c3ccncc3)C2C(=O)N1c1ccc(N2CCOCC2)cc1 (configuration not stated) returned KCNQ2 block inactive and KCNQ2 block baseline -2.7.
`O=C(c1ccco1)[C@@H]1[C@@H]2C(=O)N(c3ccccc3)C(=O)[C@@H]2C2c3ccccc3C=CN21` (some centres not stated) gave KCNQ2 block inactive and KCNQ2 block baseline 2.
For Cc1cccc(NC(=O)CNC(=O)COC(=O)CCS(=O)(=O)c2ccccc2)c1C the results were KCNQ2 block inactive and KCNQ2 block baseline -0.37.
For COc1ccc(CC(=O)OCC(=O)N(CC(C)C)c2c(N)n(Cc3ccccc3)c(=O)[nH]c2=O)cc1 the results were KCNQ2 block inactive and KCNQ2 block baseline 3.2.
Screening COC(=O)c1ccc(CSc2nnc(CNC(=O)c3ccccc3F)o2)o1 returned KCNQ2 block inactive and KCNQ2 block baseline 1.1.
C(=C1/CCCC2=C1Nc1ncnn1C2c1ccccc1)/c1ccccc1 (configuration not stated) was read as KCNQ2 block -6.5* and KCNQ2 block baseline 1.3*.
Screening Cc1ccc(NC(=O)CCC(=O)N/N=C/c2coc3ccc(F)cc3c2=O)cc1 returned KCNQ2 block inactive and KCNQ2 block baseline 0.02.
For COC(=O)c1c(NC(=S)Nc2cc(OC)c(Cl)cc2OC)sc2c1CCCCC2 the results were KCNQ2 block inactive and KCNQ2 block baseline 0.48.
Cc1ccc([N+](=O)[O-])cc1NC(=O)CN(C1CCCCC1)S(=O)(=O)c1ccc(Cl)cc1 was read as KCNQ2 block -7.9* and KCNQ2 block baseline -0.16*.
For O=C(Nc1cccc(-c2cn3ccccc3n2)c1)c1ccccc1 the results were KCNQ2 block inactive and KCNQ2 block baseline -0.02.
For CC(C)(C)CC(=O)Nc1cc(S(=O)(=O)N2CCOCC2)ccc1N1CCCC1 the results were KCNQ2 block inactive and KCNQ2 block baseline 1.5.
For Cc1ccc(NC(=O)C2CCN(S(=O)(=O)c3cccc4nonc34)CC2)nc1 the results were KCNQ2 block inactive and KCNQ2 block baseline 0.07.
`CCOc1ccc2[nH]c(=O)c(CN(Cc3cccnc3)C(=O)Nc3ccccc3OC)cc2c1` gave KCNQ2 block inactive and KCNQ2 block baseline -0.7.
Screening O=C(NCCN1C(=O)S/C(=C\c2ccccc2)C1=O)c1cc(S(=O)(=O)N2CCOCC2)c(Cl)cc1Cl returned KCNQ2 block inactive and KCNQ2 block baseline -1.9.
`O=C1C(Nc2cccc(O)c2)=C(N2CCCCC2)C(=O)c2ccccc21` gave KCNQ2 block inactive and KCNQ2 block baseline -2.8.
`CC(=O)c1cc(F)c(N2CCN(C(=O)c3ccco3)CC2)cc1C` gave KCNQ2 block inactive and KCNQ2 block baseline 1.6.
O=C1CSC(=Nc2ccc(Cl)cc2)N1Cc1cccnc1 was read as KCNQ2 block inactive and KCNQ2 block baseline -0.74.
Screening O=C(c1cccs1)N(Cc1cccc(F)c1)C1CCS(=O)(=O)C1 (configuration not stated) returned KCNQ2 block inactive and KCNQ2 block baseline 0.31.
COc1ccc(Cl)cc1S(=O)(=O)NCCCn1ccnc1 was read as KCNQ2 block inactive and KCNQ2 block baseline 0.24.
`O/N=C1\CCSc2ccc(F)cc21` gave KCNQ2 block inactive and KCNQ2 block baseline 0.68.
Cc1ccc(C23CC4CC(CC(C(=O)NC(C)C)(C4)C2)C3)cc1 was read as KCNQ2 block inactive and KCNQ2 block baseline 0.92.
O=C(NC(=S)Nc1ccccc1O)c1ccc(Cl)cc1Cl was read as KCNQ2 block inactive and KCNQ2 block baseline 1.2.
`COC(=O)C1CN(S(=O)(=O)c2ccccc2)CCN1S(=O)(=O)c1ccccc1` (configuration not stated) gave KCNQ2 block inactive and KCNQ2 block baseline -1.
For COC(=O)C1CCN(S(=O)(=O)c2c(C)n(C)c(=O)n(C)c2=O)CC1 the results were KCNQ2 block inactive and KCNQ2 block baseline -1.
Screening Cc1nc2nc(N)nc(OCc3ccccc3)c2nc1C returned KCNQ2 block inactive and KCNQ2 block baseline -1.2.
`COc1ccc(NC(=O)COC(=O)c2ccc(N3CCCC3=O)cc2)cc1OC` gave KCNQ2 block inactive and KCNQ2 block baseline 0.97.
Cc1ccc(C(=O)NCCNS(=O)(=O)c2ccccc2[N+](=O)[O-])cc1 was read as KCNQ2 block inactive and KCNQ2 block baseline 0.08.
`Cc1cc(OCCCC(=O)N2CCCCC2)cc(C)c1Cl` gave KCNQ2 block inactive and KCNQ2 block baseline -1.6.
`COc1ccc(NC(=O)CN2CC(C)OC(C)C2)cc1Cl` (configuration not stated) gave KCNQ2 block inactive and KCNQ2 block baseline 0.75.
For O=C(O)c1cccc2c3c([nH]c12)CCCC3 the results were KCNQ2 block inactive and KCNQ2 block baseline 0.82.
For CCOC(=O)C1CCCN(Cc2c(C(=O)N3CCOCC3)nc3ccccn23)C1 (configuration not stated) the results were KCNQ2 block inactive and KCNQ2 block baseline 0.13.
`Cc1cc(=O)n2[nH]c(N3C(=O)CCC3=O)nc2n1` gave KCNQ2 block inactive and KCNQ2 block baseline -0.1.
Screening c1ccc(COC2CCCN(Cc3nc(-c4cnccn4)no3)C2)nc1 (configuration not stated) returned KCNQ2 block inactive and KCNQ2 block baseline -0.73.
For COc1ccc(NC(=O)c2cc3c(s2)CCC(C)C3)cc1S(=O)(=O)N1CCOCC1 (configuration not stated) the results were KCNQ2 block inactive and KCNQ2 block baseline 0.35.
O=C(NCCc1cnccn1)C1CCC(=O)N(Cc2ccc(Cl)cc2)C1 (configuration not stated) was read as KCNQ2 block inactive and KCNQ2 block baseline -0.21.
`CN1C(=O)N(C)C2(c3ccccc3)Nn3c(s/c(=C/c4ccco4)c3=O)=NC12c1ccccc1` (configuration not stated) gave KCNQ2 block inactive and KCNQ2 block baseline 0.07.
COc1ccc(S(=O)(=O)N2CCCC2CNC(=O)C(=O)NCc2ccccc2)cc1 (configuration not stated) was read as KCNQ2 block inactive and KCNQ2 block baseline 0.14.
`O=C(CSc1ncn[nH]1)Nc1nc(-c2ccccc2)ns1` gave KCNQ2 block inactive and KCNQ2 block baseline 1.9.
For CC(=O)c1cccc(N(C(=O)CNC(=O)c2ccco2)C(C(=O)NCC2CCCO2)c2ccccc2)c1 (configuration not stated) the results were KCNQ2 block inactive and KCNQ2 block baseline 2.1.
COc1ccc(C)cc1NC(=O)C1CCCN(S(=O)(=O)c2ccc3c(c2)CCCN3C(C)=O)C1 (configuration not stated) was read as KCNQ2 block inactive and KCNQ2 block baseline -0.03.

By substructure: the entries above containing an NH in an aromatic ring
`O=[N+]([O-])c1ccc(Sc2n[nH]c(-c3ccco3)n2)nc1` gave KCNQ2 block inactive and KCNQ2 block baseline 1.3.
For COc1ccc(N(CC(=O)Nc2cccc(C)c2)S(=O)(=O)c2c(C)n[nH]c2C)cc1 the results were KCNQ2 block inactive and KCNQ2 block baseline 0.03.
For COc1ccc(CC(=O)OCC(=O)N(CC(C)C)c2c(N)n(Cc3ccccc3)c(=O)[nH]c2=O)cc1 the results were KCNQ2 block inactive and KCNQ2 block baseline 3.2.
`CCOc1ccc2[nH]c(=O)c(CN(Cc3cccnc3)C(=O)Nc3ccccc3OC)cc2c1` gave KCNQ2 block inactive and KCNQ2 block baseline -0.7.
For O=C(O)c1cccc2c3c([nH]c12)CCCC3 the results were KCNQ2 block inactive and KCNQ2 block baseline 0.82.
`Cc1cc(=O)n2[nH]c(N3C(=O)CCC3=O)nc2n1` gave KCNQ2 block inactive and KCNQ2 block baseline -0.1.
`O=C(CSc1ncn[nH]1)Nc1nc(-c2ccccc2)ns1` gave KCNQ2 block inactive and KCNQ2 block baseline 1.9.

Other structures follow.
Cc1cccc(OCCNc2ccc([N+](=O)[O-])cn2)c1 was read as KCNQ2 block inactive and KCNQ2 block baseline -2.2.
Screening COc1ccc(Nc2c([N+](=O)[O-])ccc3c2=NC2(CCCCC2)N=3)cc1 returned KCNQ2 block inactive and KCNQ2 block baseline -0.94.
Cc1ccc(O)c(CP(=O)(c2ccccc2)c2ccccc2)c1 was read as KCNQ2 block inactive and KCNQ2 block baseline -1.5.
C=CCOC(=O)C1=C(C)N=C2SCCC(=O)N2C1c1ccc(OC(=O)c2ccco2)cc1 (configuration not stated) was read as KCNQ2 block inactive and KCNQ2 block baseline 1.5.
CCC1(C)Cc2ccccc2-c2nc3n(c(=O)c21)CC(C(=O)O)S3 (configuration not stated) was read as KCNQ2 block inactive and KCNQ2 block baseline -0.64.
COc1ccccc1C(=O)N/C(=C\c1ccc(Br)cc1)C(=O)NCCCO was read as KCNQ2 block inactive and KCNQ2 block baseline -1.7.
O=C1NC(=S)N/C1=C/c1cc([N+](=O)[O-])ccc1N1CCOCC1 was read as KCNQ2 block inactive and KCNQ2 block baseline 0.19.
CCOC(=O)C1CCN(S(=O)(=O)c2ccc3oc(=O)ccc3c2)CC1 was read as KCNQ2 block inactive and KCNQ2 block baseline 0.14.
For CCN1C(=O)c2cccc3c(NC(=O)c4cccc(N5C(=O)CCC5=O)c4)ccc1c23 the results were KCNQ2 block inactive and KCNQ2 block baseline 0.91.
CCOC(=O)N1CCN(C(=O)c2ccc3c(=O)n(CCc4ccccc4)c(=S)[nH]c3c2)CC1 was read as KCNQ2 block inactive and KCNQ2 block baseline 0.46.
Screening CCn1cc(/C=C(\NC(=O)c2cc(OC)c(OC)c(OC)c2)C(=O)N2CCN(C)CC2)c2ccccc21 returned KCNQ2 block inactive and KCNQ2 block baseline 2.8.
For O=c1c(Cc2ccccc2O)c(O)nc2n1CCCS2 the results were KCNQ2 block inactive and KCNQ2 block baseline 0.23.
COc1cc(/C=C/C(=O)OCC(=O)NCCc2ccccc2)ccc1OC(F)F was read as KCNQ2 block inactive and KCNQ2 block baseline 2.2.
`Cc1nc2c(C#N)c(C)[nH]n2c(=O)c1Cc1ccccc1` gave KCNQ2 block inactive and KCNQ2 block baseline -1.2.
For Cc1nc(NC(=O)c2ccc3c(c2)OCO3)ccc1Br the results were KCNQ2 block inactive and KCNQ2 block baseline -0.36.
For Cc1ccc(CNC(=O)c2c(-c3ccccc3Cl)noc2C)cc1 the results were KCNQ2 block inactive and KCNQ2 block baseline -0.41.
`CCN(Cc1ccccc1)C(=O)C1CCN(c2ncnc3c2nc2n3CCCCC2)CC1` gave KCNQ2 block inactive and KCNQ2 block baseline 0.4.
Screening CC1CCc2nc3ccccc3c(C(=O)OCC(=O)N(C)C3CCS(=O)(=O)C3)c2C1 (configuration not stated) returned KCNQ2 block inactive and KCNQ2 block baseline -0.61.
